Vaccinia mCherry: qHTS for Stage-Specific Inhibitors of Vaccinia Orthopoxvirus: mCherry Reporter Primary qHTS; AID 720579, 2013; Potency, µM (titrated, usually from 36.5 µM), without a hit: at the top dose activity change, negative = inhibition, actives largely listed as inhibitors; Vaccinia virus mCherry reporter infection, fluorescence; about a quarter of the inactives have no number; 310,000 tested, 0.63% active; active = well fitted inhibition curve with a large enough effect; inconclusive = small, poorly fitted or top-dose-only effect; inactive = no such curve, though single readings can be large or run the other way; tested in A549 cells; further: nearly all actives have a fitted effect of over 35% in size; inactives centre near -10
VACV Venus inh: qHTS for Stage-Specific Inhibitors of Vaccinia Orthopoxvirus: Venus Reporter Primary qHTS. Vaccinia virus Venus reporter expression, fluorescence. Potency, µM (top dose mostly 36.5 µM), inactives show at the top dose activity change, negative = inhibition, actives largely listed as inhibitors. 330,000 tested, 0.46% active. AID 720580, 2013; active means well fitted inhibition curve with a large enough effect; inconclusive means small, poorly fitted or top-dose-only effect; inactive means no such curve, though single readings can be large or run the other way; tested in A549 cells; further: nearly all actives have a fitted effect of over 30% in size; inactives centre near -10
An asterisk follows results filed as active; [ ] = remark or other dose. On the % scale 0 is the no-effect control and ±100 the full control effect; potency means the concentration at half of the fitted maximal effect.

`COc1cccc(-c2nnc3n(Cc4ccccc4Cl)c(=O)c4ccccc4n23)c1O` gave Vaccinia mCherry -22% and VACV Venus inh -4%.
`CCCCC[C@@H](/C=C/C1C(=O)C=C[C@H]1C/C=C\CCCC(=O)O)OC(C)=O` (some centres undefined) gave Vaccinia mCherry inconclusive and VACV Venus inh 14%.
Screening Cc1ccc(Cn2c(=O)c3ccccc3n3c(-c4ccccc4)nnc23)cc1 returned Vaccinia mCherry -12% and VACV Venus inh -5%.
For CC1(C)CC(=O)C=C(c2n[nH]nc2-c2ccccc2)C1 the results were Vaccinia mCherry -5% and VACV Venus inh -6%.
Screening COc1cc(C2C(C(=O)c3sc(C)nc3C)=C(O)C(=O)N2CCN(C)C)cc(OC)c1OC (centres undefined) returned VACV Venus inh -7%.
O=C(CSc1nnc(-c2ccccc2)o1)Nc1ccccc1F was read as Vaccinia mCherry -8% and VACV Venus inh -9%.
O=C(Cc1ccc(F)cc1)N1CCC(CC2CC(c3ccc(Cl)cc3)=NO2)(C(=O)NCC2CCCCC2)CC1 (centres undefined) was read as Vaccinia mCherry inconclusive and VACV Venus inh inconclusive.
`CCC(C)n1c(O)c(C=NCCN2CCOCC2)c(=O)[nH]c1=S` (centres undefined) gave Vaccinia mCherry -26% and VACV Venus inh -18%.
`Cc1ccc2nc(C)c(C(=O)N/N=C/c3ccccc3[N+](=O)[O-])cc2c1` gave Vaccinia mCherry inactive and VACV Venus inh -8%.
CC(O)(c1ccccc1)c1nc(-c2ccc(F)c(Cl)c2)cs1 (centres undefined) was read as Vaccinia mCherry -13% and VACV Venus inh inconclusive.
For CC1(C(=O)O)CCC2(C)CCC3(C)C(=CC(=O)C4C5(C)CCC(=O)C(C)(C)C5CCC43C)C2C1 (centres undefined) the results were Vaccinia mCherry inactive and VACV Venus inh -6%.
`CCN1CCC(N(Cc2ccc(F)cc2)C(=O)Nc2cccc(C(F)(F)F)c2)CC1` gave Vaccinia mCherry -20% and VACV Venus inh -16%.
`CCOC(=O)C1CCN(C(=O)c2ccccc2NS(=O)(=O)c2ccc(F)c(F)c2)CC1` gave Vaccinia mCherry inactive and VACV Venus inh -26%.
`CCO[C@@H]1c2c(ccc3ccc(=O)oc23)OC(C)(C)[C@@H]1O` gave Vaccinia mCherry -14% and VACV Venus inh 4%.
Cc1ccc(NC(=S)NCc2cccs2)cc1 was read as VACV Venus inh inconclusive.
COC(=O)c1cccc(NC(=S)N2CCCCC2)c1 was read as Vaccinia mCherry 1% and VACV Venus inh -5%.
Screening CCOC(=O)C1(C)CCN1C(=O)c1cccs1 (centres undefined) returned Vaccinia mCherry 0% and VACV Venus inh 9%.
For C=CCCC(=O)N1C[C@H]2CON(C)[C@H]2C[C@H]1c1cccc(Br)c1 the results were Vaccinia mCherry -9% and VACV Venus inh 3%.
`CCN(CC)CCCNC(=O)c1cc(Sc2nnc(C)s2)nc2ccccc12` gave Vaccinia mCherry -9% and VACV Venus inh -9%.
Screening Cc1noc(C)c1CSCC(=O)OCC(=O)Nc1ccc(OC(F)(F)F)cc1 returned Vaccinia mCherry -7% and VACV Venus inh 5%.
Screening Cc1ccccc1NC(=O)Cc1nnc(SCC(=O)N2CCOCC2)n1C returned Vaccinia mCherry -11% and VACV Venus inh -4%.
For O=c1cc(-c2ccc(O)c(O)c2)oc2cc(O)c(C3OC(CO)C(O)C(O)C3O)c(O)c12 (centres undefined) the results were Vaccinia mCherry -1% and VACV Venus inh 3%.
Screening CCOc1ccc(C(CC(=O)O)NC(=O)COc2ccccc2)cc1OC (centres undefined) returned Vaccinia mCherry -14% and VACV Venus inh -17%.
`Cc1ccccc1C(=O)N1CCC(C(=O)N(C)CCOc2ccccc2)CC1` gave Vaccinia mCherry inactive and VACV Venus inh -13%.
Screening COc1cc(/C=N/n2cnnc2)ccc1OCCSc1ccc(C)cc1 returned VACV Venus inh -21%.
Screening COc1ccc(-c2sc(NC(=O)c3ccc(C)cc3)nc2-c2ccc([N+](=O)[O-])cc2)cc1 returned Vaccinia mCherry -8% and VACV Venus inh -5%.
Screening CN1C(=O)c2ccccc2NC(=O)[C@]12O[C@@H]2c1cccc(O)c1 returned Vaccinia mCherry 18% and VACV Venus inh 8%.
`C[C@@H]1Cn2cnc(C(=O)N[C@@H](C)C(=O)OC(C)(C)C)c2C(=O)N1` gave Vaccinia mCherry -1% and VACV Venus inh -10%.
For CCOc1ccc(NC(=O)CN2CCN(CC(=O)c3ccc(OC)c(OC)c3)CC2)cc1 the results were Vaccinia mCherry inactive and VACV Venus inh -7%.
Screening COc1ccc(CCn2c(-c3ccco3)nc3nc4ccccc4nc32)cc1 returned Vaccinia mCherry -11% and VACV Venus inh 4%.
Screening O=C(O)c1ccc(NC2=Nc3cccc4cccc2c34)cc1 returned Vaccinia mCherry -13% and VACV Venus inh -12%.
For O=C(CCSc1ccccc1)Nc1ccccc1C(=O)N1CCCC1 the results were Vaccinia mCherry -12% and VACV Venus inh -19%.
For O=C(COC(=O)Cn1cnc2ccccc21)Nc1cc2c(cc1Cl)C(=O)c1ccccc1C2=O the results were Vaccinia mCherry -20% and VACV Venus inh 3%.
`C=CCn1c(NCc2ccc(N(C)C)cc2)nc2ccccc21` gave Vaccinia mCherry -8% and VACV Venus inh 5%.
N#Cc1ccc(NC(=O)Nc2cccc(C#N)c2)cc1 was read as Vaccinia mCherry -15% and VACV Venus inh inconclusive.
`Cc1[nH][nH]c(=O)c1C(c1ccc(-c2ccccc2C(=O)O)o1)c1c(C)[nH][nH]c1=O` gave Vaccinia mCherry -1% and VACV Venus inh -2%.

Ten compounds from above, ordered by heavy-atom count, highest first.
For O=C(COC(=O)Cn1cnc2ccccc21)Nc1cc2c(cc1Cl)C(=O)c1ccccc1C2=O the results were Vaccinia mCherry -20% and VACV Venus inh 3%.
For CCOc1ccc(NC(=O)CN2CCN(CC(=O)c3ccc(OC)c(OC)c3)CC2)cc1 the results were Vaccinia mCherry inactive and VACV Venus inh -7%.
`Cc1[nH][nH]c(=O)c1C(c1ccc(-c2ccccc2C(=O)O)o1)c1c(C)[nH][nH]c1=O` gave Vaccinia mCherry -1% and VACV Venus inh -2%.
Screening COc1ccc(CCn2c(-c3ccco3)nc3nc4ccccc4nc32)cc1 returned Vaccinia mCherry -11% and VACV Venus inh 4%.
Screening CCOc1ccc(C(CC(=O)O)NC(=O)COc2ccccc2)cc1OC (centres undefined) returned Vaccinia mCherry -14% and VACV Venus inh -17%.
Screening COc1cc(/C=N/n2cnnc2)ccc1OCCSc1ccc(C)cc1 returned VACV Venus inh -21%.
For O=C(CCSc1ccccc1)Nc1ccccc1C(=O)N1CCCC1 the results were Vaccinia mCherry -12% and VACV Venus inh -19%.
`C=CCn1c(NCc2ccc(N(C)C)cc2)nc2ccccc21` gave Vaccinia mCherry -8% and VACV Venus inh 5%.
Screening O=C(O)c1ccc(NC2=Nc3cccc4cccc2c34)cc1 returned Vaccinia mCherry -13% and VACV Venus inh -12%.
N#Cc1ccc(NC(=O)Nc2cccc(C#N)c2)cc1 was read as Vaccinia mCherry -15% and VACV Venus inh inconclusive.

The listing continues.
Screening COC(=O)c1ccc2c(=O)n(CCCCCC(=O)N3CCN(c4ccccc4)CC3)c(=O)[nH]c2c1 returned Vaccinia mCherry -11% and VACV Venus inh -9%.
Screening COc1ccc(Cl)cc1NC(=O)c1ccc2c(c1)CCN2S(C)(=O)=O returned Vaccinia mCherry -11% and VACV Venus inh -8%.
`O=C(Nc1nnc([C@H]2C[C@H](O)[C@@H](CO)O2)s1)c1ccc(Oc2ccccc2)cc1` gave Vaccinia mCherry 18% and VACV Venus inh 0%.
Screening Cc1ccc(S(=O)(=O)Nc2ccc(=O)n(Cc3ccc(Cl)c(Cl)c3)c2)cc1 returned Vaccinia mCherry -24% and VACV Venus inh -12%.
`COc1ccc2c(c1)c(=O)c(C(=O)c1ccc(C)cc1)cn2CC(=O)Nc1ccc(F)cc1` gave Vaccinia mCherry inconclusive and VACV Venus inh inconclusive.
Screening Cc1nnc(SCC(=O)Nc2ccc(S(N)(=O)=O)cc2)n(N)c1=O returned Vaccinia mCherry -8% and VACV Venus inh -2%.
For Cc1nc2scc(C)n2c(=O)c1S(=O)(=O)NCCc1ccccc1 the results were Vaccinia mCherry -5% and VACV Venus inh 6%.
For O=C(COC(=O)c1ccc(Cl)c(S(=O)(=O)N2CCN(c3ccc(F)cc3)CC2)c1)Nc1cccc(Cl)c1 the results were Vaccinia mCherry -11% and VACV Venus inh -2%.
For Cc1c(C(=O)NCc2ccc3c(c2)OCO3)sc(=O)n1Cc1ccc(S(C)(=O)=O)cc1 the results were Vaccinia mCherry -1% and VACV Venus inh -6%.
COC(=O)CSc1nc2ccccc2o1 was read as Vaccinia mCherry 2% and VACV Venus inh 6%.
For O=C(NCc1ccccc1)C1CCN(S(=O)(=O)c2cc([N+](=O)[O-])ccc2Cl)CC1 the results were Vaccinia mCherry -23% and VACV Venus inh -9%.
O=C(COc1ccccc1)Nc1ccc2c(c1)Cc1cc(NC(=O)COc3ccccc3)ccc1-2 was read as Vaccinia mCherry -8% and VACV Venus inh -12%.
Nc1cccc2c1C(=O)N(CCOc1ccccc1F)C2=O was read as Vaccinia mCherry inactive and VACV Venus inh -10%.
For CCCCOc1cccc(C(=O)Nc2ccc3oc(-c4cccnc4)nc3c2)c1 the results were Vaccinia mCherry -20% and VACV Venus inh -15%.
O=C1NC(Cc2ccccc2)c2nc3cc(F)c(F)cc3c(=O)n2-c2ncccc21 (centres undefined) was read as Vaccinia mCherry -15% and VACV Venus inh -14%.
O=C(Nc1ccc2oc(-c3ccc(F)cc3)nc2c1)c1ccccc1F was read as VACV Venus inh -15%.
Screening Cc1c(NC(=O)Cn2[nH]c(=O)c3ccccc3c2=O)c(=O)n(-c2ccccc2)n1C returned VACV Venus inh -24%.
Screening COC(=O)[C@]12CCCCC=C1N(Cc1ccc3c(c1)OCO3)C(=O)[C@H](CC(=O)N1CCCC1)C2 returned Vaccinia mCherry 20% and VACV Venus inh 11%.
CCOc1ccc(CN2C(=O)c3ccccc3Sc3ccc(C(=O)NCc4ccc(C)cc4)cc32)cc1 was read as Vaccinia mCherry -20% and VACV Venus inh -19%.
CCOC(=O)c1c(NC(=O)CN2C(=O)NC3(CCCCC3)C2=O)sc(C)c1-c1ccc(C)cc1 was read as Vaccinia mCherry -19% and VACV Venus inh -12%.
`COc1ccc(-n2ncc(C(=O)N3CCN(C(=O)c4ccco4)CC3)c2C2CCN(C(=O)OC(C)(C)C)CC2)cc1` gave Vaccinia mCherry -18% and VACV Venus inh -18%.
For Cc1cnc(CNC(=O)c2csc(COCCO)n2)cn1 the results were Vaccinia mCherry 50%[activator] and VACV Venus inh -3%.
COc1ccc2[nH]cc(CCNS(=O)(=O)c3ccc(NC(C)=O)cc3)c2c1 was read as Vaccinia mCherry inconclusive and VACV Venus inh -15%.
For CCN1CCN(C(=O)/C=C/c2ccccc2[N+](=O)[O-])CC1 the results were Vaccinia mCherry inactive and VACV Venus inh -8%.
Cc1ccccc1N(CC(=O)NC1CCCC1)C(=O)c1oc(C(C)(C)C)cc1C was read as Vaccinia mCherry inactive and VACV Venus inh 5%.
Cc1oc(-c2ccccc2F)nc1Cn1c(SCc2cccc(C(F)(F)F)c2)nc2ccncc21 was read as Vaccinia mCherry -1% and VACV Venus inh -14%.
For COc1ccc(Cl)cc1NC(=O)Cn1c(=O)c2ccccc2n2nncc12 the results were Vaccinia mCherry -4% and VACV Venus inh -4%.
For Cc1ccc(NC(=O)c2cnn(C)c2)cc1[N+](=O)[O-] the results were Vaccinia mCherry -4% and VACV Venus inh -4%.
CCOc1ccc(NC(=O)CSc2nc(-c3ccc(OC)cc3)nc3c2Cc2c(CO)cnc(C)c2O3)cc1 was read as Vaccinia mCherry -13% and VACV Venus inh 0%.
O=C(CCN=C1NS(=O)(=O)c2ccccc21)OCC(=O)c1ccccc1Cl was read as Vaccinia mCherry inactive and VACV Venus inh -8%.
For Cc1cc(C)cc(NC(=O)CSc2nc(N)c(NC(=O)c3ccc(Br)o3)c(=O)[nH]2)c1 the results were Vaccinia mCherry -10% and VACV Venus inh -8%.
Screening O=P1(Oc2ccccc2)CC=C[C@H](COCc2ccccc2)O1 (some centres undefined) returned Vaccinia mCherry -4% and VACV Venus inh -9%.
Screening Cc1ccc(OCCCC(=O)Nc2ccccc2C(F)(F)F)cc1 returned Vaccinia mCherry -15% and VACV Venus inh -8%.
For CC1(C(=O)Nc2ccc3c(c2)OCO3)CCN1C(=O)Cc1ccc(-c2ccccc2)cc1 (centres undefined) the results were Vaccinia mCherry inconclusive and VACV Venus inh -25%.
CCCC(=O)O[C@H]1C[C@@H](C)N(C(=O)c2ccccc2)c2ccc(C)cc21 was read as VACV Venus inh -14%.
Screening COc1cccc(CNC(=O)Cc2csc3nc(-c4ccccc4)cn23)c1 returned Vaccinia mCherry -5% and VACV Venus inh -11%.
C/C=C1\NC(=O)[C@H](C)NC(=O)[C@@H](NC(=O)[C@@H](Cc2ccc(O)cc2)NC(=O)[C@@H](NC(=O)/C(C)=C/C)C(C)C)[C@@H](C)OC(=O)[C@H](CCCCc2ccc(O)cc2)NC(=O)[C@@H](CCC(=O)O)NC1=O was read as Vaccinia mCherry inactive and VACV Venus inh -2%.

Compound activity as filed in PubChem.

Compounds were not picked by outcome. Share with any hit: about 0.88%.
